# Screening data as filed in PubChem.
# GLA inh pH 4.5 – qHTS Assay for Inhibitors of Human alpha-Galactosidase at pH 4.5; purified enzyme, 4-MU-alpha-Gal fluorescence, pH 4.5; 230,000 tested, under 10 active; activity change, negative = inhibition, % at 105 µM; inconclusive = small, poorly fitted or top-dose-only inhibition, or a rising curve; inactive = flat fitted curve, though single readings scatter; no compound was filed as active;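 also: 0% = full activity with enzyme and -100% = basal without enzyme; dose as in the result columns while the protocol names 77 µM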
# Target sequence (P06280 whole entry, looked up): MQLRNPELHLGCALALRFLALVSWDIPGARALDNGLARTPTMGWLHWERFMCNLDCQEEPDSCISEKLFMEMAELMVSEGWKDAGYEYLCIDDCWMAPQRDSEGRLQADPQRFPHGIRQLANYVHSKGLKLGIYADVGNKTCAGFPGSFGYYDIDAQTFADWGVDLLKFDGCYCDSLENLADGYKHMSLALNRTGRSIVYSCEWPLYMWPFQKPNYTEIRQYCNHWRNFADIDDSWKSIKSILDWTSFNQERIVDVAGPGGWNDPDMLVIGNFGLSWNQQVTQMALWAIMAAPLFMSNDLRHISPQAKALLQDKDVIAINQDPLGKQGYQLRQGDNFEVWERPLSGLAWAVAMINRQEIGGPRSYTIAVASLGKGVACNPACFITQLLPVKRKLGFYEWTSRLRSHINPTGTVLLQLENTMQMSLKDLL
# Rango complex inh – qHTS Assay for Inhibitors of Rango (Ran-regulated importin-beta cargo) - Importin beta complex formation | Potency, µM (titrated, usually from 92.2 µM), for the others: at the top dose inhibition of complex formation | 340,000 tested, 0.031% active | Rango CFP/YFP FRET sensor + importin beta, 45 min; active = rising FRET ratio curve, often small or poorly fitted; inconclusive = mostly compound fluorescence or quenching in the first reads; inactive = flat curves in all reads;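 also: potency is read from the fitted curve at half-maximal effect; 0% = DMSO wells and 100% = buffer wells lacking importin beta; nearly all actives have a fitted effect of over 15% in size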
#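 FRET biosensor (snurportin 1 IBB flanked by EYFP and cerulean), 50 nM, with compound 5 min, then 0.125 microM importin beta in PBS, 1 mM DTT, 0.02% Tween-20, 0.1% BSA. CFP/YFP ratio read after 45 min at room temperature; pre-read flags interference.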
# Rango release inh – qHTS Assay for Inhibitors of RanGTP induced Rango (Ran-regulated importin-beta cargo) - Importin beta complex dissociation. Biochemical FRET Rango-importin beta, RanGTP-induced dissociation. Snurportin-1 (Homo sapiens) + GTP-binding nuclear protein Ran (Homo sapiens) + Importin …. Potency, µM (doses to about 46.1 µM), without a hit: at the highest dose activity change, negative = inhibition. 340,000 tested, 0.071% active; active means falling FRET ratio curve, often poorly fitted, with flat reads before Ran was added; inconclusive means other falling curves, or compound fluorescence or quenching; inactive means flat or rising ratio curve;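 also: potency is read from the fitted curve at half-maximal effect; % of control where 0% means no effect; nearly all actives have a fitted effect of over 45% in size; -100% = wells without RanGTP and RCC1; the record marks most hits as doubtful in a second field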
#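 Quantitative HTS using a FRET biosensor: 0.1 uM Rango, 0.25 uM importin beta, 0.6 uM Ran, 2 mM GTP, 0.2 uM RCC1 final, PBS with DTT, Tween-20 and BSA. Post-read taken 45 min after Ran addition.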
# miR-21 reporter – qHTS Assay for Modulators of miRNAs and/orActivators of miR-21; HeLa miR-21 FLuc reporter, luciferase, 48 h; Potency, µM (titrated, usually from 38.3 µM), for inactives: top-dose reporter change, positive = more light; 340,000 tested, under 10 active; AID 2288, 2010; active = well fitted rising curve with a large enough effect; inconclusive = small, poorly fitted or top-dose-only effect; inactive = no such curve, though single readings can be large or run the other way;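 also: % of control where 0% means no effect; miR-21 action dims this reporter so a rising signal means less miR-21 action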
#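 HeLa cells stably expressing CMV-driven firefly luciferase with a downstream miR-21 binding sequence, endogenously expressing miR-21, were treated with titrations (up to about 40uM final) for 48 hours at 37 degree Celsius. Luciferase luminescence was read after lysis.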
# Numbers without * were called inactive; ? = inconclusive; . = not tested or not shown; & = joins results of further samples. Not all compounds are listed; the hit share may differ from the screen's.
1: O=C(CN1CCCC1=O)N1CCOCC1
2: O=C1CN=C(c2ccccc2)c2cc(Cl)ccc2N1
3: Nc1c(Br)cc2c3c(cccc13)-c1ccccc1-2
4: COc1cc(C2C(C#N)=C(N)Oc3cc(O)ccc32)cc(OC)c1OC (configuration not stated)
5: COC(=O)C1=C(c2ccccc2OCc2ccccc2)C[C@@H]2CC[C@H]1N2C(=O)NCc1ccccc1

Compound,1,2,3,4,5
GLA inh pH 4.5,-12,.,.,-3,.
Rango complex inh,-1.8%,-0.8%,?,?,0.0%
Rango release inh,-1%,5%,?,?,15%
miR-21 reporter,-5%,.,.,14%,.

# Next part; it opens with the 4 that closed the last part.
2: O=C1CN=C(c2ccccc2)c2cc(Cl)ccc2N1
3: Nc1c(Br)cc2c3c(cccc13)-c1ccccc1-2
4: COc1cc(C2C(C#N)=C(N)Oc3cc(O)ccc32)cc(OC)c1OC (configuration not stated)
5: COC(=O)C1=C(c2ccccc2OCc2ccccc2)C[C@@H]2CC[C@H]1N2C(=O)NCc1ccccc1
6: CCOP(=O)(C(NC(=O)c1ccccc1Cl)=C(Cl)Cl)c1ccccc1 (configuration not stated)
7: C[C@H](O)[C@H]1CC[C@H]2[C@@H]3CCC4=CC(=O)CC[C@]4(C)[C@H]3CC[C@]12C
8: C#C[C@]1(O)CCC2C3CCC4=C/C(=N/OCC(=O)NC(C)C(=O)NC(CCSC)C(=O)O)CC[C@]4(C)C3CC[C@@]21C (some centres not stated)
9: CN1CCN(c2nccc3c2ncn3C)CC1
10: CC(=NCc1ccc2c(c1)OCO2)c1c(O)n(C)c(=O)n(C)c1=O

Compound,2,3,4,5,6,7,8,9,10
GLA inh pH 4.5,.,.,-3,.,-4,.,.,20,0
Rango complex inh,-0.8%,?,?,0.0%,2.3%,-3.3%,0.7%,7.8%,?
Rango release inh,5%,?,?,15%,-11%,-16%,6%,-1%,15%
miR-21 reporter,.,.,14%,.,9%,0%,-7%,-4%,14%

11: N=C1c2ccccc2CN1NC(=O)C1CC1
12: CC(=O)OC1N=C(c2ccccc2)c2cc(C)ccc2NC1=O (configuration not stated)
13: Cn1cc(C(=O)NC2CC2)c2ccccc21
14: CCOP(=O)(OCC)C(NC(=O)CN1C(=O)c2ccccc2S1(=O)=O)C(Cl)(Cl)Cl (configuration not stated)
15: COc1ccc2c(c1)[nH]c1c(C)nccc12

Compound,11,12,13,14,15
GLA inh pH 4.5,-17,3,.,4,-4&-7&3&-6
Rango complex inh,1.5%,-0.2%,0.1%,4.1%,-6.0%
Rango release inh,1%,-7%,0%,-10%,3%
miR-21 reporter,-2%,-8%,1%,-2%,.

16: Cc1ccc(CC(=O)N2CCN(C)CC2)cc1
17: COC(=O)C1=C(c2ccc(S(C)(=O)=O)cc2)C[C@@H]2CC[C@H]1N2C(=O)NCc1ccccc1
18: CCOP(=O)(OCC)C(O)c1ccc(Br)cc1 (configuration not stated)
19: O=C(COc1ccc(Br)cc1)N1CCN(Cc2c[nH]c3ccccc23)CC1
20: c1ccc(C2CC2)c(OCC2=NCCN2)c1

Compound,16,17,18,19,20
GLA inh pH 4.5,.,.,5,-10,5&4
Rango complex inh,-1.8%,-3.8%,-1.2%,-0.8%,-1.0%
Rango release inh,-1%,-21%,-25%,10%,1%
miR-21 reporter,-15%,.,-3%,16%,.

21: CON(C)C(=O)Nc1ccc(Cl)cc1
22: CC(C)OP(=O)(O)NC(=O)c1ccccc1
23: C1CCCN(C2CCNCC2)CC1
24: COc1cccc(C(=O)N2CCC3(CC2)OCCO3)c1
25: NC(=O)C1CCN(/C=C2\C(=O)NC(=O)N(Cc3ccco3)C2=O)CC1

Compound,21,22,23,24,25
GLA inh pH 4.5,-9,10,.,11,10
Rango complex inh,2.2%,-2.2%,-2.0%,0.1%,1.3%
Rango release inh,28%,-18%,1%,-3%,-4%
miR-21 reporter,-16%,1%,-2%,-11%,2%

26: COC(=O)c1ccc(C(=O)OC)c(NC(=O)Oc2ccccc2)c1
27: COc1cccc(C(=O)C2CCCN(Cc3cccc(C)n3)C2)c1 (configuration not stated)
28: Nc1c([N+](=O)[O-])cc(F)c(N2CCNCC2)c1Br
29: COC(=O)[C@H]1C[C@@H]1[C@H](NP(=O)(c1ccccc1)c1ccccc1)c1ccccc1
30: O=c1ccc2cc(O[C@@H]3O[C@@H](CO)[C@H](O)[C@@H](O)[C@@H]3O)c(O)cc2o1

Compound,26,27,28,29,30
GLA inh pH 4.5,?,-5,10,5&-3,.
Rango complex inh,?,-1.8%,0.2%,-0.9%,?
Rango release inh,?,-9%,8%,1%,?
miR-21 reporter,-25%,0%,-22%,-2%,-6%

31: CCC(C)n1c(O)c(C=NCc2cccnc2)c(=O)[nH]c1=S (configuration not stated)
32: CP(=O)(O)CN1CCCCC1
33: O=C1NC(=O)N(Cc2ccccc2)C(=O)/C1=C\c1ccco1
34: O=P(O)(Oc1ccccc1)c1ccccc1
35: O=C(c1ccc(N2CC3CC(C2)c2cccc(=O)n2C3)c([N+](=O)[O-])c1)N1CCCCC1 (configuration not stated)

Compound,31,32,33,34,35
GLA inh pH 4.5,-3,4,-2,.,1
Rango complex inh,5.7%,-1.4%,?,0.2%,-1.2%
Rango release inh,?,9%,?,4%,-9%
miR-21 reporter,6%,1%,0%,.,-7%

36: Cn1c(O)c(C=NCCCCCCCCCCC(=O)O)c(=O)n(C)c1=O
37: C[C@]12CC[C@H](O)CC1=CC(=O)C1C2CC[C@]2(C)C(=O)[C@H](O)CC12 (some centres not stated)
38: CCC1(CCc2ccncc2)C(=O)NC(=O)NC1=O
39: COC(=O)[C@H]1[C@H]2C[C@@H]3c4[nH]c5cc(OC)ccc5c4CCN3C[C@H]2C[C@@H](OC(=O)/C=C/c2cc(OC)c(OC)c(OC)c2)[C@@H]1OC
40: CC12CCC3C(CC=C4CC5(CCC43C)OCCO5)C1CCC2=O (configuration not stated)

Compound,36,37,38,39,40
GLA inh pH 4.5,-24,.,4,.,8
Rango complex inh,-0.2%,-0.5%,-2.6%,?,2.1%
Rango release inh,-9%,1%,3%,5.8µM*,12%
miR-21 reporter,1%,.,-1%,.,1%

41: CC(=O)c1c(COC(=O)c2cccnc2)nc2ccccc2[n+]1[O-]
42: CCOC(=O)c1c(C)n(Cc2ccc3c(c2)OCO3)c2ccc(O)cc12
43: CSc1nc2ccccc2c(=O)n1-c1cccnc1
44: Cc1cnn(C2CCN(C)CC2)c1N
45: Cn1c(O)c(C=NCCN2CCNCC2)c(=O)[nH]c1=O

Compound,41,42,43,44,45
GLA inh pH 4.5,1,-4,-12,5,3
Rango complex inh,?,-0.5%,3.2%,13%,-0.8%
Rango release inh,4%,13%,9%,49%,6%
miR-21 reporter,4%,-44%,-7%,0%,5%

46: COc1ccc(NP2(=O)OCC(C)(N)CO2)cc1 (configuration not stated)
47: Nc1cc(Cl)cc(Cl)c1
48: COc1ccc(CCNCc2sccc2C)cc1
49: Cc1ccc2c(c1)N(N=O)CCC2
50: COc1cc(/C=C/C(=O)c2c(O)n(CCc3ccccc3)c(=O)[nH]c2=O)ccc1O

Compound,46,47,48,49,50
GLA inh pH 4.5,.,.,.,-5,?
Rango complex inh,-4.3%,0.2%,-1.4%,0.6%,?
Rango release inh,0%,-10%,10%,-7%,?
miR-21 reporter,.,.,-11%,0%,-7%

51: COc1ccc(C2NCc3ccccc3-n3cccc32)cc1 (configuration not stated)
52: O=C(c1ccc(Cl)cc1)C1CCCN(Cc2cccc3cnccc23)C1 (configuration not stated)
53: C/C(=N\N(C)c1ccccc1)c1c(O)[nH]c(=O)[nH]c1=O
54: COC(=O)C1=C(c2ccc(C(C)=O)cc2)C[C@@H]2CC[C@H]1N2C(=O)N1CCCCC1
55: CCn1c(O)c(C=Nc2ccc(N3CCOCC3)cc2)c(=O)n(CC)c1=S

Compound,51,52,53,54,55
GLA inh pH 4.5,-5,-4,-1,.,-2
Rango complex inh,2.9%,0.1%,0.2%,-3.0%,?
Rango release inh,-14%,10%,13%,6%,?
miR-21 reporter,1%,23%,7%,.,3%

56: COC(=O)C1=C(c2ccccc2OCc2ccccc2)C[C@@H]2CC[C@H]1N2C(=O)NC1CCN(Cc2ccccc2)CC1
57: Cc1ccsc1C(=O)C1CCCN(Cc2cnc(N3CCOCC3)s2)C1 (configuration not stated)
58: c1ccc2sc(C3CCNCC3)nc2c1
59: CCC(=O)OC1(c2cccc(C)c2)CC(C)N(C)CC1C (configuration not stated)
60: Nc1cncc(C(=O)O)c1

Compound,56,57,58,59,60
GLA inh pH 4.5,.,3,.,3,-19&-9
Rango complex inh,-1.6%,?,-2.6%,-3.3%,-0.9%&-1.9%
Rango release inh,0%,?,-18%,5%,-6%&13%
miR-21 reporter,.,15%,-7%,-5%,2%&-4%

61: CCCOC(=O)C1C2CCC(O2)C1C(=O)O (configuration not stated)
62: COc1ccc(NC(=O)c2c(C)nn(Cc3ccccc3Cl)c2Cl)cc1Cl
63: O=C(c1cccn2c(=O)c3cc(Cl)ccc3nc12)N1CCC2(CC1)OCCO2
64: c1ccc(P(c2ccccn2)c2ccccn2)cc1
65: NC(=O)Cn1cc(C=C2C(=O)NC(=O)NC2=O)c2ccccc21

Compound,61,62,63,64,65
GLA inh pH 4.5,.,3,22,-1,.
Rango complex inh,7.1%,-2.5%,?,-1.3%,-4.0%
Rango release inh,-2%,4%,?,0%,-19%
miR-21 reporter,.,-6%,-4%,1%,2%

66: O=C(C1CC(c2ccc(Cl)c(Cl)c2)=NO1)N1CCC2(CC1)OCCO2 (configuration not stated)
67: Nc1c(C(=O)OC2CCCCC2)c2nc3ccccc3nc2n1CC1CCCO1 (configuration not stated)
68: Fc1ccccc1CN1CCN(c2ccc(Cl)cc2)CC1
69: Cc1[nH]c2ccccc2c1CCNCc1cccnc1
70: O=C(c1cc2ccccn2n1)N1CCC2(CC1)OCCO2

Compound,66,67,68,69,70
GLA inh pH 4.5,-7,26,.,.,-3
Rango complex inh,-2.0%,?,-2.8%,0.5%,0.0%
Rango release inh,13%,?,11%,2%,7%
miR-21 reporter,-53%,0%,-2%,-3%,-4%

71: CCc1cc(=O)oc2c(C)c(OCC(=O)N3C[C@H]4C[C@@H](C3)c3cccc(=O)n3C4)ccc12
72: CC1([N+](=O)[O-])COP(=O)(Nc2cccc(Cl)c2)OC1 (configuration not stated)
73: Cc1cccc(NC2=NCCCS2)c1C
74: CC1=CC(=C2C(=O)NC(=S)NC2=O)C=C(C(F)(F)F)N1CCc1ccccc1
75: CCOC(=O)C1=C(NC(=S)NC(=O)c2ccccc2)c2ccccc2CC12CCCC2

Compound,71,72,73,74,75
GLA inh pH 4.5,.,.,-7,11,-9
Rango complex inh,0.1%,-3.7%,2.5%,.,2.6%
Rango release inh,-12%,-2%,20%,.,12%
miR-21 reporter,-3%,.,-2%,-1%,27%

76: CCCCn1c(=O)c(C(=O)NCCc2ccccc2)c(O)c2ccccc21
77: COC(=O)C(O)(c1ccc(NC(=O)c2cccs2)c(C)c1)C(F)(F)F (configuration not stated)
78: S=C=Nc1cccc(C2(N3CCCCC3)CCCCC2)c1
79: O=C(c1ccc2c(c1)ncn2-c1ccc(F)cc1F)N1CCC2(CC1)OCCO2
80: CCc1nc2ccccc2c(=O)n1-c1ccc2ccccc2c1
81: COc1ccc(N/N=C/c2c(O)n(-c3ccc(C)c(C)c3)c(=O)[nH]c2=O)cc1
82: O=C(Cc1ccccc1)OCCN1CCOCC1

Compound,76,77,78,79,80,81,82
GLA inh pH 4.5,.,-4,-3,-14,-2,2,2
Rango complex inh,-1.2%,-4.5%,1.2%,4.1%,-2.1%,5.0%,1.8%
Rango release inh,3%,-9%,15%,14%,-2%,1%,3%
miR-21 reporter,-1%,0%,.,5%,14%,3%,-4%
